High-throughput results as filed in PubChem BioAssay.
Polio RdRp inh: poliovirus RNA polymerase inhibition | AID 588519 | hit rate 0.66% among 150,000 | poliovirus polymerase elongation, fluorescence polarization; stronger effect = lower value | P03300 | % elongation, % (compound at 16.7 µg/mL); in the data active = % elongation below about 90%; note: some results filed as inactive read as strong as hits
Target sequence (P03300 1749-2209 limits assumed): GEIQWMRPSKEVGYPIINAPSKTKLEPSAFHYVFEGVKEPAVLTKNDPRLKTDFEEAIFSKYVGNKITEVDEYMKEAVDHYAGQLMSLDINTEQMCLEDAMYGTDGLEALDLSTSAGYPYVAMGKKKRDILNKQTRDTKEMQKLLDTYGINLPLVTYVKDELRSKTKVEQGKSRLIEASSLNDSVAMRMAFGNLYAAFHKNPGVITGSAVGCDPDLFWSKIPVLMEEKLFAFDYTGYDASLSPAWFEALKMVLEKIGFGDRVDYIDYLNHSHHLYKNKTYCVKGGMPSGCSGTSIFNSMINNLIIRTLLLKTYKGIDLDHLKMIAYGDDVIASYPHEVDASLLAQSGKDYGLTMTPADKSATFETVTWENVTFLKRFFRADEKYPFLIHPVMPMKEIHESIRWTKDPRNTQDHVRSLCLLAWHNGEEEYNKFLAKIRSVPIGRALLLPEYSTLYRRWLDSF
Polio RdRp inh intensity: also measured in Polio RdRp inh; calls as there; % elongation; measured here: total intensity read-out; formula for this scale not given here;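 total fluorescence in place of polarization; lower means less elongation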
* marks the source's active call; other numbers are inactive results.

SMILES	Polio RdRp inh	Polio RdRp inh intensity
COc1cc(OC)c(NC(=O)Nc2ccc3c(c2)N(C)C(=O)c2ccccc2S3)cc1Cl	106	105
CCc1ccc(-n2c(-c3ccccc3)c(C)n3c4c(=O)n(C)c(=O)n(C)c4nc23)cc1	105	105
CCN(C(=O)CSc1nnc(-c2ccc(Cl)cc2)o1)c1ccccc1	109	111
COc1cccc(N2CCN(C(=O)c3cc4c(=O)n(Cc5cccs5)ccc4nc3C)CC2)c1	106	117
COc1ccc(NC(=O)CSc2nc(-c3ccccc3)[nH]c2-c2ccccc2)cc1OC	112	110
CCn1c(=O)n(-c2ccc(C)c(F)c2)c(=O)c2sc3ccccc3c21	103	108
COc1ccc2c(c1)Cc1sc(NC(=O)c3cccc(Cl)c3)nc1-2	63*	58*
CSc1cccc(NC(=O)CN2CCN(Cc3ccccc3C)S2(=O)=O)c1	106	100
O=C(Nc1cc(-c2nc3cc(Cl)ccc3o2)ccc1Cl)c1ccco1	111	116
CC(C)NC(=O)Cn1c(=O)nc(-c2ccccc2)c2ccccc21	110	110
Cc1ccc(NC(=O)c2ccc(NC(=O)N3CCSc4ncccc43)cc2)c(Cl)c1	106	101
Cc1cccc(N(C)S(=O)(=O)c2nnc(NC(=O)C3CCCCC3)s2)c1	102	104
COc1ccc2c(c1)c1c(c(=O)n(-c3ccccc3)c(=O)n1CC(=O)Nc1ccc(F)cc1)n2C	108	114
COc1cc(OC)c(NC(=O)c2cnn(-c3cccc(Cl)c3C)c2C2CCN(C(=O)OC(C)(C)C)CC2)cc1Cl	104	109
COc1ccc(N2CCN(C(CNC(=O)C(=O)NCc3ccc(C)cc3)c3cccnc3)CC2)cc1 (stereo not given)	113	115
Cc1cccc(NC(=O)c2cc(-c3ccc4c(c3)OCCO4)on2)c1	116	116
COCCCNC(=O)c1sc2nc(C)c(C(=O)Nc3ccc(C)cc3C)c(-c3ccc(Cl)cc3)c2c1N	100	97
COc1ccc(OC)c(CCNC(=O)c2csc3c2CCCCC3)c1	103	109
O=C(NCc1ccc2c(c1)CCN2C(=O)c1ccccc1)Nc1cccc(C(F)(F)F)c1	107	103
CC1Cc2ccccc2N1C(=O)CSc1nnc(-c2ccccc2Cl)o1 (stereo not given)	100	99
CSc1ccc(CC2C(=O)Nc3ccccc32)cc1 (stereo not given)	103	100
Cc1ccc(-c2nn3c(=O)cc(CN4CCN(C(=O)Nc5cc(Cl)ccc5C)CC4)nc3s2)cc1	104	98
CCOc1ccc(Nc2nc3ccccc3n3c(CC)nnc23)cc1	107	114
CCCSc1nc2c([nH]c3ccccc32)c(=O)n1C	113	117
CCOc1ccc(-n2c(=O)c3c4c(sc3n(CC(=O)NC(C)CC)c2=O)CCCCC4)cc1 (stereo not given)	103	107
CCS(=O)(=O)N1CCc2cc(C(=O)N3CCN(c4ccccc4)CC3)ccc21	112	115
COc1ccc(NC(=O)c2cnc[nH]2)cc1	107	104
CN(C(=O)CN1C(=O)CCSc2ccc(S(=O)(=O)N3CCCC3)cc21)c1ccccc1	103	106
Cc1ccc(S(=O)(=O)c2cn(Cc3cccc(C)c3)c3cc4c(cc3c2=O)OCO4)cc1	97	97
Cc1nc(S(=O)(=O)N2CCN(c3cccc(Cl)c3)CC2)cn1C	106	97
CCOC(=O)c1c(C)n(-c2ccc(OC)cc2)c2ccc(OC(=O)COc3ccccc3)cc12	107	112
CC(=O)c1cc(-c2ccc(F)cc2)n(CC(=O)NC(C)c2ccccc2)c1C (stereo not given)	106	102
COc1cc(Cl)c(NS(=O)(=O)c2ccc3[nH]c(=O)ccc3c2)c(OC)c1	107	111
COc1ccc(CCNC(=O)c2ccc3c(c2)N(Cc2cc(C)ccc2C)C(=O)c2ccccc2S3=O)cc1OC (stereo not given)	102	104
Cc1ccc(-c2nc3ccccn3c2Nc2ccc3c(c2)OCO3)o1	105	107
Cc1ccc(C)c(Cn2c(=O)n(CC3CCC(C(=O)N4CCOCC4)CC3)c(=O)c3sccc32)c1 (stereo not given)	103	104
O=C(Nc1ccc(F)cc1)c1ccc(-n2cnnc2)cc1	109	106
CCOc1ccc(C(=O)N(Cc2cc(OC)c(OC)c(OC)c2)c2ccccn2)cc1	110	113
CC(C)(C)OC(=O)N1CCC(c2c(C(=O)N3CCN(c4ncccn4)CC3)cnn2-c2ccc(F)cc2)CC1	103	107
COc1ccc(CN(C)S(=O)(=O)c2nnc(NC(=O)C(C)C)s2)cc1OC	109	111
COC(=O)c1ccc(NC(=O)Cn2cnc3c2c(=O)n(C)c(=O)n3C)cc1	105	110
COc1ccc(C(=O)CC2(O)C(=O)N(Cc3ccccc3)c3ccc(Br)cc32)cc1 (stereo not given)	109	109
Cc1cc(=O)n(Cc2c(F)cccc2Cl)c2c1c(C)nn2C	106	115
CCOc1ccccc1CNC(=O)c1ccc(-n2c(C)cc3c2CCC(C)C3)cc1 (stereo not given)	113	114
Cc1cc(C)cc(NS(=O)(=O)c2ccc3c(c2)NC(=O)C(C)S3)c1 (stereo not given)	108	106
Cc1cccc(Nc2nn3c(=O)c4cc5c(cc4nc3s2)OCO5)c1	105	105
COc1ccc2nc(N(Cc3cccnc3)C(=O)c3ccc(Cl)cc3)sc2c1	111	113
CC(C)Oc1ccc(C(=O)Nc2nonc2-c2ccc(OC(C)C)cc2)cc1	106	112
COc1ccc(C(=O)c2cn(Cc3ccccc3F)c3cc4c(cc3c2=O)OCCO4)cc1OC	108	108
Cc1ccccc1Cn1c(CN2CCC(C(=O)NCCN(C)C)CC2)cc2ccccc21	114	103
Cc1ccc2c(c1)C(c1ccccc1)N(C(=O)c1ccccc1F)CC(=O)N2 (stereo not given)	102	103
CC1=C(C(=O)NCc2cccc(F)c2)C2(CCCCCC2)OC1=O	101	102
CCOc1ccc(OCC)c(NC(=O)CC(C)n2nc(C)cc2C)c1 (stereo not given)	105	106
Cc1ccccc1-c1noc(CSc2nc(-c3ccc(F)cc3)cc(=O)[nH]2)n1	101	104
CCc1ccc(NC(=O)c2cnn(-c3ccccc3)c2-n2cccc2)cc1	103	105
Cc1oc2c(cc(NS(=O)(=O)c3ccc(Br)cc3)c3ccccc32)c1C(=O)OCc1ccccc1	103	126
Nc1nn(-c2ccccc2)nc1C(=O)OCc1ccc(Cl)cc1	103	106
O=C(COc1ccccc1)Nc1ccc2nc(SCCOc3ccccc3)sc2c1	109	110
Cc1cc(C)cc(NC(=O)NCC2CCN(Cc3cc(C)ccc3C)CC2)c1	110	110
CCOC(=O)c1ccc(NS(=O)(=O)c2ccc3c(c2)CCN3C(=O)CC)cc1	114	110

Grouped by structure: those above containing a thiophene ring, fused or not.
SMILES	Polio RdRp inh	Polio RdRp inh intensity
COc1cccc(N2CCN(C(=O)c3cc4c(=O)n(Cc5cccs5)ccc4nc3C)CC2)c1	106	117
CCn1c(=O)n(-c2ccc(C)c(F)c2)c(=O)c2sc3ccccc3c21	103	108
COCCCNC(=O)c1sc2nc(C)c(C(=O)Nc3ccc(C)cc3C)c(-c3ccc(Cl)cc3)c2c1N	100	97
COc1ccc(OC)c(CCNC(=O)c2csc3c2CCCCC3)c1	103	109
CCOc1ccc(-n2c(=O)c3c4c(sc3n(CC(=O)NC(C)CC)c2=O)CCCCC4)cc1 (stereo not given)	103	107
Cc1ccc(C)c(Cn2c(=O)n(CC3CCC(C(=O)N4CCOCC4)CC3)c(=O)c3sccc32)c1 (stereo not given)	103	104

(next part)
SMILES	Polio RdRp inh	Polio RdRp inh intensity
COC(=O)c1ccccc1NC(=O)c1cc2ccccn2n1	100	107
CCc1nc2nc(C)cc(Nc3cc(Cl)ccc3OC)n2n1	101	103
COc1ccc(-c2[nH]c3ccccc3c2SCCNC(=O)c2ccc(S(=O)(=O)N(C)C)cc2)cc1	109	110
Cc1ccc2nc(NC(=O)CSc3ncc(C(=O)Nc4ccc(F)cc4)c(=O)n3C)sc2c1	111	95
COCCCNC(=O)c1c(NC(=O)c2cc(=O)c3cc(C)c(C)cc3o2)sc2c1CCCC2	106	88
Cc1ccc(NC(=O)CN2C(=O)c3ccccc3Sc3ccc(C(=O)N4CCCC4)cc32)cc1	109	110
CCc1ccc(CNC(=O)c2ccc(NC(=O)N3CCSc4ncccc43)cc2)cc1	101	104
COC(=O)c1ccc(Cn2c(=O)cc(C)c3c(C)nn(C)c32)cc1	102	107
COc1ccc(S(=O)(=O)NCC(c2ccco2)N2CCOCC2)cc1C (stereo not given)	103	112
COC(=O)c1ccccc1NC(=O)CSc1nc2ccsc2c(=O)n1CCC(C)C	109	110
Cc1cccc(CCNC(=O)c2ccc3c(c2)nc2n3CCC(C)C2)c1 (stereo not given)	110	109
CCOc1ccc(N2CC(c3nc4ccccc4n3CCCOc3ccccc3OC)CC2=O)cc1 (stereo not given)	101	95
COc1ccccc1CNc1ncnc2c1c(-c1ccccc1)cn2-c1cccc(C)c1	103	104
Cc1cccc(N(C)S(=O)(=O)c2cc(-c3cnc(C4CC4)o3)ccc2C)c1	108	101
Cc1cccc(-n2cc(-c3ccccc3)c3c(N4CCC(C)CC4)ncnc32)c1	109	103
COc1ccc(CNc2ncnc3c2cnn3-c2ccc(Cl)cc2)cc1	98	99
CNC(=O)C1CCN(C(=O)N2CC(C)Oc3ccc(Cl)cc32)CC1 (stereo not given)	112	113
Cc1ccc(CCNC(=O)c2ccc3c(c2)N(Cc2cc(C)ccc2C)C(=O)c2ccccc2S3=O)cc1 (stereo not given)	104	105
CCOc1ccccc1CNS(=O)(=O)c1ccc2[nH]c(=O)ccc2c1	107	114
Cc1ccc(N(CC(=O)Nc2ccc(C)c(F)c2)S(=O)(=O)c2c(C)n[nH]c2C)cc1	111	111

Some of these compounds in order of heavy-atom count, rising:
SMILES	Polio RdRp inh	Polio RdRp inh intensity
Cc1nc(S(=O)(=O)N2CCN(c3cccc(Cl)c3)CC2)cn1C	106	97
Cc1cccc(NC(=O)c2cc(-c3ccc4c(c3)OCCO4)on2)c1	116	116
COC(=O)c1ccc(NC(=O)Cn2cnc3c2c(=O)n(C)c(=O)n3C)cc1	105	110
CCc1ccc(CNC(=O)c2ccc(NC(=O)N3CCSc4ncccc43)cc2)cc1	101	104

Returning to the listing with the three entries that preceded the break.
SMILES	Polio RdRp inh	Polio RdRp inh intensity
Cc1ccc(CCNC(=O)c2ccc3c(c2)N(Cc2cc(C)ccc2C)C(=O)c2ccccc2S3=O)cc1 (stereo not given)	104	105
CCOc1ccccc1CNS(=O)(=O)c1ccc2[nH]c(=O)ccc2c1	107	114
Cc1ccc(N(CC(=O)Nc2ccc(C)c(F)c2)S(=O)(=O)c2c(C)n[nH]c2C)cc1	111	111
Cc1cccc(NC(=O)CSc2nc3c(sc4ccccc43)c(=O)n2CCCC(=O)NC2CCCC2)c1	108	111
CCOc1ccc(CNC(=O)CCCn2c(=O)c3cccn3c3ccccc32)cc1	106	110
Cc1ccccc1-c1nc(CS(=O)(=O)CC(=O)N2CCN(c3ccccc3)CC2)c(C)o1	97	97
CCn1c(=O)cc(SCC(=O)NCCc2cc(OC)ccc2OC)c2ccccc21	107	113
Cc1ccccc1C(=O)Nc1nnc(S(=O)(=O)N(C)Cc2ccccc2)s1	104	107
COc1ccc(NC(=O)C2CCC(CNS(=O)(=O)c3csc(C(N)=O)c3)CC2)cc1 (stereo not given)	98	107
CCOc1ccc(CCNC(=O)Cn2nc(C)c3c(C)n(-c4ccccc4)nc3c2=O)cc1OCC	114	116
Cc1ccc(C)c(N2CCN(C(=O)C3CCC(CNS(=O)(=O)c4cccs4)CC3)CC2)c1 (stereo not given)	111	115
Cc1c(C)c2c(cc(C)c3c(-c4ccccc4)coc32)oc1=O	102	104
COc1ccc(CNS(=O)(=O)c2ccc(C(=O)N(C)C)s2)cc1	103	100
Cc1nn(CC(=O)NC2CCCCC2)c(=O)c2cc3cc(F)ccc3n12	109	114
O=C(Nc1ccc2nc(SCC(=O)N3CCCC3)sc2c1)c1ccc(Br)cc1	103	97
CCc1ccc(C(=O)NC2=NC(c3cc(OC)ccc3OC)CC(=O)N2)cc1 (stereo not given)	105	113
Cc1ccc(CNC(=O)c2c(-c3cccc(Br)c3)noc2C)o1	115	113
Cc1cc(C)cc(NC(=O)Cn2nnc(C(=O)Nc3cc(C)cc(C)c3)c2N)c1	112	112
CCOc1ccc(-c2nonc2NC(=O)c2oc3c(C)c(C)ccc3c2C)cc1OCC	107	111
CCC(=O)N1c2ccccc2CC1C(=O)N1CCN(c2cccc(Cl)c2)CC1 (stereo not given)	104	106
Cc1noc(/C=C/c2ccco2)c1S(=O)(=O)N1CCC(C(=O)Nc2ccc(F)cc2F)CC1	105	106
CCOc1cc(CNC(=O)c2ccc3nc(CCc4ccccc4)oc3c2)ccc1OC	108	110
Cc1ccc(NC(=O)Cn2cc(S(=O)(=O)N3CCCC3)c(S(=O)(=O)N3CCCC3)c2)cc1C	112	111

Random excerpt: 2 compounds from above
SMILES	Polio RdRp inh	Polio RdRp inh intensity
Nc1nn(-c2ccccc2)nc1C(=O)OCc1ccc(Cl)cc1	103	106
CCOC(=O)c1ccc(NS(=O)(=O)c2ccc3c(c2)CCN3C(=O)CC)cc1	114	110

New compounds follow
SMILES	Polio RdRp inh	Polio RdRp inh intensity
CCOc1ccc(CNC(=O)c2ccc(NC(=O)N3CCCCc4ccccc43)cc2)cc1	109	98
COc1cc(C(=O)NCCSc2c(C)[nH]c3ccccc23)cc(OC)c1OC	106	111
COC(=O)c1ccccc1NC(=O)c1ccc2c(c1)CCN2S(=O)(=O)c1ccc(C)cc1	104	110
COc1cccc(OCCn2c(-c3ccc(Br)cc3)nc3ccccc3c2=O)c1	103	106
CCN(CCCNC(=O)c1cc2cc3ccc(C)cc3nc2s1)c1ccccc1	113	112
O=C(CSCc1ccc(F)cc1)N1CCN(c2ccc(Cl)cc2)CC1	108	107
COc1ccccc1CNS(=O)(=O)c1ccc(N2CCCCS2(=O)=O)cc1	105	105
Cc1ccc(-c2noc(CSc3nnc(Cc4ccccc4)n3-c3cccc(C)c3)n2)cc1	109	114
CNC(=O)C1CCC(Cn2c(=O)c3sccc3n(CC(=O)NCc3ccc(F)cc3)c2=O)CC1 (stereo not given)	107	109
Cc1ccc(S(=O)(=O)c2nnn3c2nc(NCc2ccc4c(c2)OCO4)c2sccc23)cc1C	105	107
CCCN1C(C(=O)c2ccccc2)=C(OC(=O)COc2ccc(C)cc2)c2ccccc2S1(=O)=O	108	117
CCN(CC)C(=O)c1c(NC(=O)c2ccccc2F)sc2c1CCC(C(C)(C)C)C2 (stereo not given)	104	105
COc1ccc(-c2cc(C)no2)cc1S(=O)(=O)N1CCOc2ccccc21	113	110

This is a subset, so the mix of outcomes need not match the whole.
